Myeloid_diff_MLP: myeloid differentiation induction; ER-HoxA9 myeloid progenitors, lysozyme-GFP differentiation, flow cytometry; calls only at 10 µM; 360,000 tested, 1% active;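 active means normalized GFP-positive differentiation at or above the plate's own cutoff, the solvent-only control mean plus 3 SD; inconclusive means no clear call, values can overlap the other calls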;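 further: cells exposed to compound for four days before flow analysis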
Rac1_GTP_hydrolysis: MgcRacGAP GTPase-activating activity inhibitors, confirmation, biochemical, ADP Hunter fluorescence. MgcRacGAP-stimulated Rac1 GTP hydrolysis, ADP Hunter fluorescence; higher % means a stronger effect; GST-tagged Rac1 F28L mutant substrate. inhibition, % at 30 µM; hits with a dose series show IC50 in µM. 340,000 tested, 0.6% active. AID 624330;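 active means first-screen hits whose inhibition reached a set limit at any dose in the follow-up dose series; inconclusive means inhibition above the set first-screen limit but never retested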;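 further: fluorescence reports GDP produced by GAP-driven GTP hydrolysis; strong numbers were not always called active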
T_cell_modulator: T cell immune modulation candidate | 330,000 tested, 0.068% active | 2C CD8+ T cell-vesicle binding, flow cytometry; stronger effect = lower value | calls only at 7 µM | AID 2052;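 active means response, share of CD8 T cells binding vesicles, and their 90th percentile fluorescence all below set limits, cut at about 80% in these data, passing the limit was not always enough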
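Material: murine 2C transgenic CD8+ T lymphocytes / Also added: QL9-peptide-loaded Drosophila micro-vesicles bearing Ld, ICAM-1 and B7-1 / Schedule: binding step 1.5 h, 37 °C, antibody labelling 20 min, ice / Signal: flow cytometry, PE anti-B7-1 (FL2) versus Alexa647 anti-CD8 (FL8), PFA-fixed / Evaluation: percent CD8+ FL2 mean versus row control / Benchmarks: naked versus QL9-loaded vesicles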
b-catenin_transl: modulators of beta-catenin nuclear translocation; AID 1665; 190,000 tested, 0.3% active; nuclear translocation activity, % at 5 µM; HeLa beta-catenin nuclear translocation, immunofluorescence imaging;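 active means nuclear translocation activity above 50% at 5 µM, with a well cell count of 50 or more; inconclusive means wells under 50 cells across six images, flagged as toxic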;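 further: per-cell ratio of nuclear to cytoplasmic median beta-catenin stain intensity; plate controls were DMSO negative control for no effect and GSK-3 inhibitor IX positive control for full effect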
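System: Human HeLa cells, endogenous beta-catenin | Compound dosing: 5 µM primary, 0.02–20 µM confirmation | Timing: 24 h compound exposure at 37°C, 5% CO2 | Measured by: Fluorescence imaging of beta-catenin antibody stain plus DAPI | Read-out basis: % activation of per-cell nuclear versus cytoplasmic median beta-catenin signal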
Large_T_inhibition: TAg ATPase/helicase activity blockers – biochemical (AID 1903) | SV40 large T antigen ATPase/helicase inhibition assay; higher % means a stronger effect | inhibition, % at 20 µM; hits with a dose series show IC50 in µM | 310,000 tested, 0.39% active; in the data active means a potency from the dose series; inconclusive means inhibition mostly from about 32% at the one dose, without a potency; inactive means the rest, 99 in 100 with inhibition below about 32%; further: strong numbers were not always called active
b-catenin_transl_cell_count_5_µM: second read-out of b-catenin_transl, no call of its own (marks repeat the call); cell count; measured here: cell count, cytotoxicity flag
T_cell_modulator_vesicle-bound_%: recorded beside T_cell_modulator, whose call it bears; double positive events, %; measured here: CD8+ vesicle-bound cell fraction;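 binding gate set so that unloaded-vesicle control wells show 10% double positive cells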
Myeloid_diff_MLP_GFP+_MAC1+_%: further read-out of Myeloid_diff_MLP, marked with its call; GFP+ MAC1+ double positive, %; measured here: differentiation confirmed by MAC1 staining
An asterisk follows results filed as active; i = inactive; ? = inconclusive; / = no result given; + = active, no number.

SMILES Myeloid_diff_MLP Myeloid_diff_MLP_GFP+_MAC1+_% Rac1_GTP_hydrolysis T_cell_modulator T_cell_modulator_vesicle-bound_% b-catenin_transl b-catenin_transl_cell_count_5_µM Large_T_inhibition
O=C(O)c1cccnc1 i 2.4 6% i 24 -1.9 629 6%
COc1cc(S(=O)(=O)n2c(C)nc3ccccc32)ccc1F i 2.0 4% i 57 / / 7%
C[C@]12CC[C@@H]3c4ccc(O)cc4CC[C@H]3[C@@H]1C[C@@H](O)[C@@H]2O i 1.8 12% i 44 -0.8 559 ?
CCCc1nc2c(=O)n(C)c(=O)nc-2n(C)n1 ? / -4% / / 3.3 1100 -8%
Cc1cccc(Nc2nc(NCc3ccco3)c3ccccc3n2)c1 i 1.3 14% i 40 -1.8 330 5%
C=CCNc1ncnc2c1[nH]c1ccccc12 i 1.3 18% i 50 0.5 1160 6%
Cc1ccc2c(CC(=O)N3CCN(S(=O)(=O)c4ccc5c(c4)OCCO5)CC3)coc2c1 i 0.4 13% i 35 -3.9 885 7%
Cc1ccc(CSCc2nc3ccccc3[nH]2)cc1 i 0.6 3% / / -4.0 595 6%
O=C(O)[C@@H](O)[C@H](O)C(=O)O i 1.5 3% i 41 / / 16%
COc1ccc(/C(N)=N/OC(=O)CSc2ccccc2)cc1 i 1.4 7% i 48 -4.2 1188 4%
O=c1[nH]c(=O)n([C@H]2C[C@H](O)[C@@H](CO)O2)cc1C(F)(F)F + 51* 3% i 22 / / 8%
Oc1c(CN2CCCCC2)cc(COCc2ccccc2)c2cccnc12 ? / 4% i 35 0.3 1061 -3%
CCN(CC)CCCNC(=S)N1CCN(c2nc(-c3ccccc3)cs2)CC1 i 2.0 8% i 62 / / 9%

By substructure, those above with nitrogen in an aromatic ring
SMILES Myeloid_diff_MLP Myeloid_diff_MLP_GFP+_MAC1+_% Rac1_GTP_hydrolysis T_cell_modulator T_cell_modulator_vesicle-bound_% b-catenin_transl b-catenin_transl_cell_count_5_µM Large_T_inhibition
O=C(O)c1cccnc1 i 2.4 6% i 24 -1.9 629 6%
COc1cc(S(=O)(=O)n2c(C)nc3ccccc32)ccc1F i 2.0 4% i 57 / / 7%
CCCc1nc2c(=O)n(C)c(=O)nc-2n(C)n1 ? / -4% / / 3.3 1100 -8%
Cc1cccc(Nc2nc(NCc3ccco3)c3ccccc3n2)c1 i 1.3 14% i 40 -1.8 330 5%
C=CCNc1ncnc2c1[nH]c1ccccc12 i 1.3 18% i 50 0.5 1160 6%
Cc1ccc(CSCc2nc3ccccc3[nH]2)cc1 i 0.6 3% / / -4.0 595 6%
O=c1[nH]c(=O)n([C@H]2C[C@H](O)[C@@H](CO)O2)cc1C(F)(F)F + 51* 3% i 22 / / 8%
Oc1c(CN2CCCCC2)cc(COCc2ccccc2)c2cccnc12 ? / 4% i 35 0.3 1061 -3%
CCN(CC)CCCNC(=S)N1CCN(c2nc(-c3ccccc3)cs2)CC1 i 2.0 8% i 62 / / 9%

Ordered by length of the SMILES (low to high): three of the compounds above
SMILES Myeloid_diff_MLP Myeloid_diff_MLP_GFP+_MAC1+_% Rac1_GTP_hydrolysis T_cell_modulator T_cell_modulator_vesicle-bound_% b-catenin_transl b-catenin_transl_cell_count_5_µM Large_T_inhibition
Oc1c(CN2CCCCC2)cc(COCc2ccccc2)c2cccnc12 ? / 4% i 35 0.3 1061 -3%
CCN(CC)CCCNC(=S)N1CCN(c2nc(-c3ccccc3)cs2)CC1 i 2.0 8% i 62 / / 9%
Cc1ccc2c(CC(=O)N3CCN(S(=O)(=O)c4ccc5c(c4)OCCO5)CC3)coc2c1 i 0.4 13% i 35 -3.9 885 7%

The list is partial. The share of hits here may be higher or lower than overall.
